Methyltransferases: Primary Screen for Target Class Profiling of Small Molecule Inhibitors of Methyltransferases | purified enzyme, MTase-Glo SAH luminescence; stronger effect = lower value | calls only at 40 µM | hit rate 3.9% among 25,000; active = -50% or lower on at least one of six enzymes; inconclusive = the cases between; inactive = as a rule above -30% on all six;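 note: enzymes were COMT GAMT GNMT HNMT NNMT and PNMT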
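Each enzyme was reacted with SAM and its substrate, with compounds tested once at 40 uM; SAH formed was read by MTase-Glo luminescence.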
Calls only; i = inactive; ? = inconclusive; + = active, no number. % is set by controls: 0 for no effect and ±100 for the full control effect. Not all compounds are listed; the hit share may differ from the screen's.

compound,Methyltransferases
CO[C@@]1(NC(=O)CSCC#N)C(=O)N2C(C(=O)O)=C(CSc3nnnn3C)CS[C@@H]21,i
CC(C)Cn1c(=O)c2cc(F)ccc2n2c(SCc3ccccc3F)nnc12,i
CC(C)CCNC(=O)c1cc2n(n1)CC(C)(C(=O)NCCC(C)C)N(C)C2=O (stereo unspecified),i
CC1CCN(C(=O)Cn2c(=O)oc3cc(S(=O)(=O)N4CC(C)CC(C)C4)ccc32)CC1 (stereo unspecified),i
CN(Cc1ccccc1)C(=O)CCn1ccc2cc(S(=O)(=O)N3CCCCC3)ccc21,i
COc1ccc2c(c1)OC[C@]1(O)c3cc4c(cc3O[C@H]21)OCO4,i
CC(C)Oc1ccc(CNC(=O)c2cc3n(n2)CC(C)(C(=O)NC2CCCC2)N(C)C3=O)cc1 (stereo unspecified),i
CC(C)(O)c1cc2nc(-c3cnc(N)nc3)nc(N3CCOCC3)c2s1,i
O=C1CN(Cc2ccccc2Cl)S(=O)(=O)c2ccccc2N1Cc1ccc(Cl)cc1,i
C/C=C/C=C/C(CC(=O)O)Nc1ccc(C=O)cc1 (stereo unspecified),i
CCC(C(=O)NCc1ccccc1F)n1ccc2cc(S(=O)(=O)N3CCCCC3)ccc21 (stereo unspecified),i
O=C1NCCN1C1CCN(Cc2cccnc2)CC1,i
CC(C)OCCCn1c(=O)c2cc(Cl)ccc2n2c(SCc3ccc(Cl)cc3)nnc12,i
CCCn1c(=O)c2ccccc2n2c(=O)n(CC(=O)Nc3ccc(CC)cc3)nc12,i
O=C(c1ccco1)N1CCC(N2CC3(CCCC3)C2c2ccccc2)CC1 (stereo unspecified),i
COc1cccc(N2C(=O)CSc3c(c4ccccc4n3C)C2C(=O)NCCCOC(C)C)c1 (stereo unspecified),i
O=C(Cn1c(=O)c2ccc(Cl)cc2n2nncc12)NCc1ccc(F)cc1,i
CCOC(=O)c1cc2n(n1)CC(C)(C(=O)NCCC(C)C)N(c1ccc3c(c1)OCO3)C2=O (stereo unspecified),i
CCOC(=O)c1cc2n(n1)CC(C)(C(=O)NCc1ccc(F)cc1)N(c1ccccc1C)C2=O (stereo unspecified),i
CN(C)CC1(O)CCC2(CCN(C(=O)C3CCCC3)CC2)CC1,i
COc1ccccc1NC(=O)Cn1nc2n(CC(C)C)c(=O)c3ccccc3n2c1=O,i
O=C1CC2CCCC(C1)N2C(=O)c1cc(F)ccc1Br,i
Cc1ccccc1CN1C(=O)c2cc(C3CC3)nn2CC1(C)C(=O)NC1CCCCCC1 (stereo unspecified),i
COc1cc2c(cc1NC(C)=O)C(c1ccc(Oc3ccccc3)nc1)CC(=O)N2 (stereo unspecified),i
Clc1ccccc1C1Nc2ccc(Br)cc2C2C=CCC21 (stereo unspecified),i

Nothing new here: 4 of the compounds above.
compound,Methyltransferases
CO[C@@]1(NC(=O)CSCC#N)C(=O)N2C(C(=O)O)=C(CSc3nnnn3C)CS[C@@H]21,i
CC(C)Cn1c(=O)c2cc(F)ccc2n2c(SCc3ccccc3F)nnc12,i
CC(C)CCNC(=O)c1cc2n(n1)CC(C)(C(=O)NCCC(C)C)N(C)C2=O (stereo unspecified),i
CC1CCN(C(=O)Cn2c(=O)oc3cc(S(=O)(=O)N4CC(C)CC(C)C4)ccc32)CC1 (stereo unspecified),i

The list continues:
compound,Methyltransferases
CC1=C2C3OC(=O)C(C)C3(O)CCC2(C)CCC1 (stereo unspecified),i
COc1ccccc1N1CCN(CCN(C(=O)c2ccc(F)cc2)c2ccccn2)CC1,i
CCC(C)NC(=O)c1ccc2c(=O)n(CC(C)C)c3nn(Cc4cc(C)ccc4C)c(=O)n3c2c1 (stereo unspecified),i
Cc1ccc2nc(NC(=O)CSc3nc4c(c(=O)n3-c3ccccc3)SCC4)sc2c1,i
CCOc1ccccc1CN1CCN(Cc2nccn2CC)CC1CCO (stereo unspecified),i
CCOc1ccccc1CN1C(=O)c2cc3occc3n2CC1(C)C(=O)NC1CCCC(C)C1C (stereo unspecified),i
O=C(c1n[nH]c2c1CCCC2)N1CCCC2(C1)Nc1cccnc1NC2=NC1CCCC1 (stereo unspecified),i
O=C1C2C=CC=CC2=NC(=S)N1CCN1CCC(=C(c2ccc(F)cc2)c2ccc(F)cc2)CC1 (stereo unspecified),i
C/C1=C/CCC2=CC(OC2=O)C(C)(C)/C=C/C1=O (stereo unspecified),i
CC1(C)C[C@@H]2[C@H](C1)[C@@]1(C)C[C@]13C(O)OC[C@]3(O)[C@H]2O (stereo partly specified),i
CNC(=O)[C@H]1O[C@@H](n2cnc3c(NCc4cccc(I)c4)ncnc32)[C@H](O)[C@@H]1O,i
CC1CC(O)C2(C)C(C(=O)O)=CCCC2C1(C)CCc1ccoc1 (stereo unspecified),+
CCCn1c(=O)c2ccc(C(=O)NC3CCCC3)cc2n2c(=O)n(Cc3ccc(C)cc3)nc12,i
Cc1ccc(Cn2c(=O)c3ccccc3n3c(CCC(=O)N4CC=C(c5ccccc5)CC4)nnc23)cc1,i
COc1ccc(NC(=O)N2CCn3cccc3C2C)cc1OC (stereo unspecified),i
CSc1ccc(CCNC(=O)Cn2ccc3cc(S(=O)(=O)N4CCC(C)CC4)ccc32)cc1,i
Cc1ccc(CN2C(=O)c3cnn(-c4ccccc4)c3-n3cccc3C2C(=O)NC2CCCCCC2)cc1 (stereo unspecified),i
CC(C)CCN1C[C@@H]2C[C@H]1C(=O)N(Cc1cccnc1)c1ccccc1O2,i
Cc1c(-c2ccccc2F)[nH]c2ccc(CNC(=O)C3C=CCN3)cc12 (stereo unspecified),i
O=C(CCc1nnc2n(Cc3ccc(Cl)cc3)c(=O)c3ccccc3n12)N1CCN(Cc2ccccc2)CC1,i
O=C(O)C[C@H]1CCC(=O)[C@@H]1C/C=C\CCOC1OC(CO)C(O)C(O)C1O (stereo partly specified),i
C/C1=C\CCC2=CC(OC2=O)C(C)(C)/C=C/C1=O (stereo unspecified),i
CC1CCN(S(=O)(=O)c2ccc3c(ccn3CC(=O)NCc3ccco3)c2)CC1,i
CC(C)CCn1c(=O)c2ccc(C(=O)NC(C)C)cc2n2c(=O)n(Cc3ccccc3Cl)nc12,i
O=C1c2cc3sccc3n2CC(C(=O)NC2CCCCCC2)(c2ccccc2)N1Cc1ccccc1 (stereo unspecified),i

Later entries:
compound,Methyltransferases
C[C@@H]1O[C@@H](O[C@H]2[C@H](O[C@H]3[C@H](O[C@H]4CC[C@@]5(C)C(CC[C@]6(C)C5CC=C5[C@@H]7CC(C)(C)C[C@@H](O)[C@]7(C)CC[C@]56C)[C@@]4(C)CO)O[C@H](C(=O)O)[C@@H](O)[C@@H]3O)OC[C@H](O)[C@@H]2O)[C@H](O)[C@H](O)[C@H]1O (stereo partly specified),i
CC(C)Oc1ccc(CN2C(=O)c3cc4sccc4n3CC2(C)C(=O)NC2CCCCC2)cc1 (stereo unspecified),i
CCC(C)NC(=O)c1ccc2c(=O)n(CC(C)C)c3nn(Cc4cccc(F)c4)c(=O)n3c2c1 (stereo unspecified),i
CN(Cc1cccn1C)C(=O)Nc1ccc(Cl)cc1,i
Cc1ccn2c(C(=O)N3CCCC(c4[nH]ncc4-c4ccccc4)C3)nnc2n1 (stereo unspecified),i
C[C@@H]1CN(C2(C(=O)NCc3n[nH]c4c3CCC4)Cc3ccccc3C2)C[C@H](C)O1,i
Cc1nc2ccccc2n1CCNS(=O)(=O)c1ccc(Cl)cc1,i
O=C(Nc1ccc2c(N3CCCCC3)ncnc2c1)c1ccccc1C(F)(F)F,+
CCOC(=O)c1cc2n(n1)CC(C)(C(=O)NCc1ccccc1)N(CCc1ccccc1)C2=O (stereo unspecified),i
CC1(C(=O)NC2CCCCC2)Cn2nc(-c3ccco3)cc2C(=O)N1Cc1ccc(F)cc1 (stereo unspecified),i
COc1ccc2cc3n(c2c1)CC(C)(C(=O)NC1CCCC1)N(Cc1cccnc1)C3=O (stereo unspecified),i
COc1cc([C@@H]2Oc3c(OC)cc(CCCO)cc3[C@@H]2CO[C@@H]2O[C@H](CO)[C@@H](O)[C@H](O)[C@H]2O)ccc1O,i
CCCC1c2ccc(C)n2CCN1C(=O)Nc1cc(Cl)c(OC)cc1OC (stereo unspecified),i
CC1(C(=O)O)CCCC2(C)C3CCC4CC3(CCC12)CC4(O)CO (stereo unspecified),i
COc1ccc(N2C(=O)c3cc4oc(C)cc4n3CC2(C)C(=O)NC2CCCCCC2)cc1Cl (stereo unspecified),i
COC(=O)[C@H]1CN(C(=O)NC(C)C)CCN1S(C)(=O)=O,i
O=C(CCCn1ccc2cc(S(=O)(=O)N3CCCC3)ccc21)NCc1cccs1,i
Fc1ccccc1OCc1nc(C2CCCNC2)no1 (stereo unspecified),i
COc1ccc(C2=CC(=O)OC2Cc2ccc(O)cc2)c(O)c1 (stereo unspecified),i
O=C(CCc1cc2n(n1)CCCNC2)Nc1ccc2c(c1)OCCO2,i
COc1ccc(CCNC(=O)c2cc3n(n2)CC(C)(C(=O)NCc2ccccc2)N(C)C3=O)c(OC)c1 (stereo unspecified),i
CC(C)N[C@@H]1CO[C@H](CNC(=O)c2ccccc2)[C@H]1O,i
CC1C2=CC(=O)OC2(O)CC2C1CCC1C(C)(C)CCC(O)C21C (stereo unspecified),i
CCc1ccc(S(=O)(=O)c2nnn3c2nc(NC2CC2)c2cc(Cl)ccc23)cc1,i
CC(C)OCCCn1c(=O)c2ccccc2n2c(CCC(=O)NCc3ccc(F)cc3)nnc12,i

Later entries.
compound,Methyltransferases
O=C(c1ccnnc1)N1CCC2(CCN(Cc3ccccn3)CC2)C(CO)C1 (stereo unspecified),i
CC1CCC(NC(=O)C2(C)Cn3c(cc4sccc43)C(=O)N2Cc2cccc(Cl)c2)CC1 (stereo unspecified),i
COCc1cccc(-c2n[nH]c3c2CC(=O)N(CCc2ccncc2)C3)c1,i
O=C(Nc1ccc(C(F)(F)F)cc1)N[C@@H]1C[C@H](CO)[C@@H](O)[C@H]1O,i
CC(C)CCn1c(=O)c2ccc(C(=O)NC3CCCC3)cc2n2c(SCC(=O)c3ccccc3)nnc12,i
CCCn1c(=O)c2ccc(C(=O)NC3CCCC3)cc2n2c(=O)n(CC(=O)c3ccc(C)cc3)nc12,i
O=S(=O)(Nc1cccn2nc(C3CC3)nc12)c1cccnc1,?
Cc1ccc(S(=O)(=O)Cc2nc(-c3ccc(C(=O)NCc4cccnc4)cc3)oc2C)cc1,i
COc1ccc(CCN2C(=O)c3cc4oc(C)cc4n3CC2(C)C(=O)NC2CCCCC2)cc1OC (stereo unspecified),+
C[C@H](O)C(O)(C(=O)OCc1ccccc1NC(=O)CCC(N)C(=O)O)[C@H](C)O (stereo partly specified),i
CCOC(=O)c1cc2n(n1)CC(C)(C(=O)NCCC(C)C)N(CCc1cccs1)C2=O (stereo unspecified),i
Cc1nonc1OCCn1ccnc1-c1cn(C2CCNCC2)nn1,i
O=C1CCC(C(=O)N2CCSCC2)CN1CCc1cccc(F)c1 (stereo unspecified),i
CC(=O)/C=C1\C(=O)N(C)c2ccccc21,i
NS(=O)(=O)c1ccc(Nc2nc(OCC3CCCCC3)c3[nH]cnc3n2)cc1,+
CCOc1ccccc1CNC(=O)c1cc2n(n1)CC(C)(C(=O)NCc1ccccc1)N(C)C2=O (stereo unspecified),i
COc1ccc(OC)c(CCNC(=O)CCc2nnc3n(CC(C)C)c(=O)c4ccccc4n23)c1,i
Cc1c(OCc2ccc(C(=O)O)o2)ccc2c(-c3ccccc3)cc(=O)oc12,?
O=C([C@@H]1C[C@H](Oc2ccccc2)CN1C(=O)C1CC1)N1CCCC1,i
CCCCNC(=O)c1cc2n(n1)CC(C)(C(=O)NCc1ccc(C)cc1)N(C)C2=O (stereo unspecified),i
COC1=CC(=O)O[C@@H](/C=C/c2ccccc2)[C@@H]1O,i
O=C(NCc1cccnc1)C1CN(S(=O)(=O)c2ccccc2)CC12CCCCC2 (stereo unspecified),i
O=C(CCn1ccc2cc(S(=O)(=O)N3CCCCC3)ccc21)N1CCOCC1,i
Cc1ccc(-c2n[nH]n3c2nc(=O)c2ccc(C(=O)NCc4ccc5c(c4)OCO5)cc23)cc1,i
CC(C)OCCCn1c(=O)c2ccccc2n2c(=O)n(CC(=O)c3ccc(F)cc3)nc12,i

In another format: 4 of the compounds above
molecule: O=C(Nc1ccc(C(F)(F)F)cc1)N[C@@H]1C[C@H](CO)[C@@H](O)[C@H]1O
- Methyltransferases: i

molecule: CC(C)CCn1c(=O)c2ccc(C(=O)NC3CCCC3)cc2n2c(SCC(=O)c3ccccc3)nnc12
- Methyltransferases: i

molecule: CCCn1c(=O)c2ccc(C(=O)NC3CCCC3)cc2n2c(=O)n(CC(=O)c3ccc(C)cc3)nc12
- Methyltransferases: i

molecule: O=S(=O)(Nc1cccn2nc(C3CC3)nc12)c1cccnc1
- Methyltransferases: ?

Other compounds follow:
compound,Methyltransferases
Cc1ccc(CNC(=O)Cn2nc3n(C)c(=O)c4ccc(C(=O)NC5CCCC5)cc4n3c2=O)cc1,i
O=C(c1cn[nH]c1)N1CC2(CN(Cc3cccc(Cl)c3)CC2COc2ccccc2)C1 (stereo unspecified),i
CC(C)(O[C@@H]1O[C@H](CO)[C@@H](O)[C@H](O)[C@H]1O)C(OC(=O)/C=C\c1ccc(O)cc1)C(=O)OCc1ccc(O[C@@H]2O[C@H](CO)[C@@H](O)[C@H](O)[C@H]2O)cc1 (stereo partly specified),i
COC(=O)CC1CCN(C(=O)C2CC(=O)N(c3n[nH]c4cccc(F)c34)C2)CC1 (stereo unspecified),i
